# Screens as filed in PubChem BioAssay.
# Rce1 inh = yeast Rce1p protease inhibitors, primary screen, biochemical, fluorescence, cell-free homogeneous | CAAX prenyl protease 2 (Saccharomyces cerevisiae (strain ATCC 204508 / S288c)), Q03530 | yeast membranes, quenched prenylated peptide cleavage fluorescence | calls only | 290,000 tested, 0.27% active | AID 2563, 2010;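 active = fall in fluorescence gain of 50% or more versus controls, with final raw signal at or below 3038400; inconclusive = same 50% fall but final raw signal above 3038400; inactive = fall in fluorescence gain under 50%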;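 also: plate controls were neutral control wells for no effect and wells lacking membranes for full effect; tested at 10 µM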
# eIF4H FP inh = human eIF4H binding inhibitors, primary screen, translation initiation inhibitor project, biochemical, uHTS, fluorescence polarization | 290,000 tested, 0.94% active | AID 2012, 2009 | Eukaryotic translation initiation factor 4H (Homo sapiens), Q15056 | inhibition, % at 35 µM | eIF4H fluorescence polarization binding assay;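 active = 50% or more with normal probe brightness, or confirmed in later tests; inconclusive = above 50% with abnormal brightness, or retests that disagree; inactive = below 50% or failed in later tests; about a fifth of its hits are not listed in these tables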;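 also: calls also rest on retests at 20 µM and on dose response follow-up; 0% = protein and probe with vehicle and 100% = probe without protein; strong numbers were not always called active; many hits fall short of the cut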
# PABP polyA inh = PABP poly(A) RNA binding inhibitors, primary screen, biochemical, fluorescence polarization, uHTS; Polyadenylate-binding protein 1 (Homo sapiens), P11940; inhibition, % at 35 µM; 290,000 tested, 1% active;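 active = 50% or more with normal probe brightness, or confirmed in later tests; inconclusive = above 50% with abnormal brightness, or retests that disagree; inactive = below 50% or failed in later tests; about a fifth of its hits are not listed in these tables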;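 also: calls also rest on retests at 20 µM and on dose response follow-up; controls were probe without protein and protein plus probe with vehicle; some compounds called inactive have numbers as strong as hits; many hits fall short of the cut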
# Target sequence (P11940 whole entry, looked up): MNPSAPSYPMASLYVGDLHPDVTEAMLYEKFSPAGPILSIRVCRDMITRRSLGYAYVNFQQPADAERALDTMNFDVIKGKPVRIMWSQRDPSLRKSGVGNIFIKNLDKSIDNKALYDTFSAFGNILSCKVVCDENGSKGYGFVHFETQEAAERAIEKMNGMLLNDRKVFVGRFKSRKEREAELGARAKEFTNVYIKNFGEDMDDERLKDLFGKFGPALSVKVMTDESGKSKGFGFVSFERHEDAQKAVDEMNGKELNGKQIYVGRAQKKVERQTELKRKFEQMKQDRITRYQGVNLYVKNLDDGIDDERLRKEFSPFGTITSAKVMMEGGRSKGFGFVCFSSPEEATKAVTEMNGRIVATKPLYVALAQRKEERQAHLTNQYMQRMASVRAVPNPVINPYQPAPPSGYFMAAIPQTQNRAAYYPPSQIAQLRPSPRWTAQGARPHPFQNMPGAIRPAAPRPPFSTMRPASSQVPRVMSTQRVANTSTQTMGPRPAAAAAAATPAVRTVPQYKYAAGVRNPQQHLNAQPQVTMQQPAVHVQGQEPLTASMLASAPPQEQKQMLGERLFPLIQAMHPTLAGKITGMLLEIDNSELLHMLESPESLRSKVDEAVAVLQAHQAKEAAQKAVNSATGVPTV
# UUG fidelity = modulators of yeast start codon fidelity, primary screen, whole organism, S. cerevisiae, single point, plate reader. S. cerevisiae UUG-firefly luciferase reporter, luminescence/redox ratio. activity score, % at 18.7 µM. 350,000 tested, 0.13% active;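 active = replicate mean at a twofold rise or more, about +100% in these data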;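 also: firefly luciferase made from a UUG start codon reports start codon fidelity; reporter light over untreated wells divided by growth signal over untreated wells; some hits fall short of that in this replicate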
# Env fusion inh = inhibitors of HIV-1 Env-driven cell-cell fusion, primary screen, HeLa-JRFL effector, CEM21 target cells, luciferase. inhibition, % at 12.3 µM. 360,000 tested, 1.1% active;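 active = mean replicate inhibition score of at least 50 and every replicate individually at or above 50; inconclusive = only one of the two criteria met; inactive = mean below 50 and not all replicates reaching 50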;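 also: 0% = plate neutral controls and 100% = maraviroc near 300 nM; one replicate is shown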
# CSC inhib = cancer stem cell viability inhibitors, primary screen, luminescence. cancer stem cell-like cells viability. inhibition, % at 7.5 µM. 300,000 tested, 1.1% active. AID 2717, 2010;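 active = mean at 75% or more and at least half the replicates too; inconclusive = mean and replicates disagree; tested in HMLE shEcad cells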;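 also: 0% = median of negative and 100% = median of positive control wells; the first replicate is given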
# MT1-MMP act inh = blockers of MT1-MMP proenzyme processing, primary screen, HT1080 RFP-PRO-GFP cells, GFP/RFP fluorescence; 360,000 tested, 0.061% active; GFP/RFP ratio fluorescence, overnight; percent of plate control window, DMSO zero; Matrix metalloproteinase-14 (Homo sapiens), P50281; GFP/RFP ratio change, % at 20 µM;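 active = GFP/RFP ratio change of at least 30% with cell ATP level not reduced by more than half and red fluorescence within 50% of control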; also: strong numbers were not always called active
#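 Assay system: HT1080 RFP-PRO-GFP cells | Dosing: 20 µM single dose, 1% DMSO | Incubation: Cells overnight before dosing, compound overnight, 37 °C, 5% CO2 | Evaluation: GFP/RFP fluorescence ratio | Control set: DMSO-only wells and HT1080 RFP-L50D-GFP cell wells as references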
# eIF4H FP inh retest = further read-out of eIF4H FP inh, marked with its call; inhibition, %; compound at 20 µM; confirmation average;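 mean of two retest wells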
# PABP polyA inh retest = also measured in PABP polyA inh; calls as there; inhibition, %; compound at 20 µM; confirmation repeats;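 mean of two retest wells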
# MT1-MMP act inh RFP = further read-out of MT1-MMP act inh, marked with its call; RFP signal change, %; measured here: RFP expression control read;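 0 = vehicle wells; hits needed this value within 50% of zero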
# An asterisk follows results filed as active; i = inactive; u = inconclusive; x = no result given; + = active, no number; & = joins results of further samples; [ ] = remark or other dose.
SMILES,Rce1 inh,eIF4H FP inh,PABP polyA inh,UUG fidelity,Env fusion inh,CSC inhib,MT1-MMP act inh,MT1-MMP act inh RFP,others
COc1cc(NC(=O)c2ccc3c(=O)n(Cc4ccco4)c(=S)[nH]c3c2)cc(OC)c1OC,i,64*,38,-8,-42,x,7,-4,eIF4H FP inh retest=74*;PABP polyA inh retest=44
NC(=O)c1ccc(NC(=O)COC(=O)C2(c3cccc(F)c3)CCCC2)cc1,i,-2,-5,x,-15,-18,-1,-6,
CC(CNC(=O)c1ccc(OC2CCN(Cc3ccccn3)CC2)cc1)Oc1cccnc1 (stereo unspecified),i,6,0,-5,3,-8,1,1,
CCOC(=O)N1CCN(C(=O)c2cccc(S(=O)(=O)Nc3ccc(OC)cc3)c2)CC1,i,x,x,x,-1,5,-1,-2,
COC(=O)CNS(=O)(=O)c1ccc(OC)cc1,i,2,-3,4,x,-2,0,3,
Cc1occc1-c1nnc(SCC(=O)N(C)c2ccccc2)o1,x,x,x,-7,-9,x,2,0,
COC(=O)c1ccc2c(C)c(C(C)(C)O)[nH]c2c1,u,-2,-2,-16,-19,2,7,-1,
COc1ccc(NC(=O)CSCC(=O)Nc2ccc(C)c(S(=O)(=O)N3CCCCCC3)c2)cc1,i,x,x,15,16,x,-2,-11,
COc1ccc(NC(=O)CSc2ncnc3c2nnn3-c2ccc(F)cc2)c(OC)c1,i,4,8,-7,-12,3,-2,-5,
CC(=O)N1C(=O)C2(NCC(C)N2)c2ccccc21 (stereo unspecified),x,x,x,-17,2,x,4,3,
C[C@H](CO)N1C[C@H](C)[C@@H](CN(C)S(=O)(=O)c2ccccc2)Oc2c(NC(=O)Nc3ccccc3)cccc2C1=O,x,x,x,-6&-10,-6[16.7 µM],x,-4,0,
Cc1cccc(C(=Cc2ccc([N+](=O)[O-])cc2)C(=O)O)c1,x,x,x,-4,-2,x,2,3,
O=C(CN(Cc1ccc2c(c1)OCO2)C(=O)CSc1nc2ccccc2o1)NC1CCCCC1,i,-16,1,-3,-5,-27,4,7,
COc1cc(S(C)=O)ccc1-c1nc2ncccc2[nH]1 (stereo unspecified),x,x,x,-11,x,3,2,6,
O=C(NNC(=O)c1cccc(S(=O)(=O)N2CCc3ccccc32)c1)c1ccccc1,i,-7,7,x,4,x,-1,-26,
O=C(CNC(=O)c1ccc(Br)o1)NCc1ccc(Cl)cc1Cl,i,2,2,-7,37,x,1,9,
CC1C/C(=N\NC(=O)c2cccnc2)CC(C)(C)C1 (stereo unspecified),i,-1,-18,-10,14,-11,1,2,
CCSc1nc(-c2ccco2)ccc1C#N,i,15,8,-16,-47,-2,-8,6,
O=C(/C(=N/N=C/c1ccc(O)c(O)c1)c1ccccc1)c1ccccc1,i,0,-12,-36,-9,53,1,-5,
O=C(N/N=C\c1ccccc1)c1sccc1-n1cccc1,i,-1,-7,-2,x,3,5,-10,
CCOC(=O)C1(CCCc2ccccc2)CCN(C(=O)Cc2nonc2C)CC1,i,0,3,x,-2,-5,-6,-8,
CC1CC1C(=O)OCC(=O)NC(=O)NCc1ccco1 (stereo unspecified),i,6,-6,-5,-58,-1,-1,1,
O=C(Cc1cccs1)N(c1ccc(Br)cc1)C1C=CS(=O)(=O)C1 (stereo unspecified),i,5,-2,x,16,9,3,3,
CC1CN(S(=O)(=O)c2ccccc2)C(C)N1C(=O)N1CCOCC1 (stereo unspecified),i,-12,10,-37,-15,-10,-4,1,
CCOc1ccc(Nc2ccc(C(=O)O)cc2[N+](=O)[O-])cc1,i,-5,2,-21,-3,x,7,1,
# Next results
SMILES,Rce1 inh,eIF4H FP inh,PABP polyA inh,UUG fidelity,Env fusion inh,CSC inhib,MT1-MMP act inh,MT1-MMP act inh RFP,others
O=C(O)c1ccc2c(c1)C(=O)N(c1ccc([N+](=O)[O-])cn1)C2=O,i,-7,1,3,-4,-19,2,2,
COc1ccc(C(C#N)=Cc2cccc(OC)c2OC)cc1,x,x,x,-16,-13,x,2,-8,
C/C(=N/NC(N)=S)c1cc2ccc(O)cc2oc1=O,i,u,u,-14,-50,-3,-121,4,
O=C1CCCN2N=C(SCC(=O)N3N=C(c4ccc(Br)cc4)CC3c3ccc(F)cc3)SC2=N1 (stereo unspecified),i,-2,-15,0,16,8,-3,-6,
COc1ccc(C(=O)Cc2ccccc2)cc1OC,i,5,-6,-7,x,6,-1,1,
Cc1c(NC(=O)COC(=O)Cn2cc(C(F)(F)F)ccc2=O)cccc1[N+](=O)[O-],x,x,x,-2,x,4,-2,4,
O=c1cnnc(N/N=C/c2cccs2)[nH]1,i,-1,10,x,35,-16,-2,0,
O=C(NCc1ccc(F)cc1)C1CC(=O)N(Cc2ccco2)C1 (stereo unspecified),i,1,5,-31,-23,24,-5,-2,
Cc1nc(SCC(=O)N2CCOCC2)c2c(C)c(C)sc2n1,i,-11,2,-11,18,-12,3,3,
C/C(=N\NC(=O)c1nn(C)c(C)c1Br)c1ccc(NC(=O)C2CCCC2)cc1,i,4,-3,1,-18,-10,-1,-2,
COC(=O)Nc1ccc(C)c2nsnc12,i,1,9,-3,-41,-1,-1,-5,
COc1ccc(/C=N/NC(=O)c2cccnc2)cc1CSc1nc2ccccc2s1,i,-5,7,-23,x,63,11,-12,
CC(C)CNC(=O)COC(=O)c1c2c(nc3ccccc13)/C(=C/c1cccs1)CC2,i,28,-11,-8,-3,52,-12,1,
Cc1ccc(NC(=S)c2nc3ccccc3[nH]2)c(C)c1,i,17,4,-41,x,35,2,0,
Cn1cc(C(CC(=O)O)C(=O)O)c2ccccc21 (stereo unspecified),i,-4,2,4,x,6,0,5,
FC(F)C(F)(F)C1=CC(c2ccccc2)=NCCN1,i,3,3,-14,x,-5,-2,3,
CCn1c(CNc2ccc(Cl)cc2)nnc1SCC#N,i,-1,10,x,21,-6,1,2,
Cc1cc(C)cc(NC(=O)[C@@H](NC(=O)c2ccco2)C(C)C)c1,i,-18,2,-7,-13,-10,-1,0,
Cc1oc2c(F)c(F)c(F)c(F)c2c1S(=O)(=O)Nc1cccc(C(F)(F)F)c1,i,-8,-1,-6,55*,97*,5,-31,
O=C(CC12CC3CC(CC(C3)C1)C2)NCc1ccc(F)cc1,i,-8,-1,-29,-2,9,-2,-3,
Cn1c(=O)c2[nH]c(SCc3ccccn3)nc2n(C)c1=S,i,9,4,x,2,-4,x,x,
Cc1cc(NC(=O)C(C)SCC(=O)Nc2cc(C(F)(F)F)ccc2N2CCOCC2)no1 (stereo unspecified),i,x,x,-12,x,0,1,1,
COc1ccc(S(=O)(=O)NCC2CCCO2)cc1NC(=O)c1ccccc1F (stereo unspecified),+,8,9,-6,13,7,2,3,
COc1ccc(OC)c(/C=N/NC(=O)CSc2cc(C)nc3c(OC)cccc23)c1,+,-13,2,x,8,-6,-4,-10,
COc1ccc(-c2cc(C(=O)OCC(=O)c3cccc([N+](=O)[O-])c3)c3cc(C)ccc3n2)cc1,i,-7,6,x,3,23,x,x,
# (next part)
SMILES,Rce1 inh,eIF4H FP inh,PABP polyA inh,UUG fidelity,Env fusion inh,CSC inhib,MT1-MMP act inh,MT1-MMP act inh RFP,others
CCC/C=C1/CCCOC(C(=O)NCc2ccccn2)(C(F)(F)F)C1 (stereo unspecified),i,x,x,-6,-13,2,-1,-3,
Cc1nn(C)cc1/C=N/NC(=O)Cn1nccc1C,i,3,6,-22,9,-3,2,2,
CC(O)CNCCCOc1cccc(C(F)(F)F)c1 (stereo unspecified),i,12,11,x,3,-5,5,9,
COc1ccc(C(=O)c2ccc(N(C)C)cc2)c2ccccc12,i,-10,-5,-8,x,x,9,-8,
Cn1nc(C2CC2)cc1NC(=O)C1(C)CCN1C(=O)Cc1ccc(-c2ccccc2)cc1 (stereo unspecified),x,x,x,4,19,x,2,-18,
COc1cc(C(=O)N2CCN(Cc3ccc4c(c3)OCO4)CC2)c([N+](=O)[O-])cc1OC,i,1,-7,-9,12,-24,5,-8,
C=CCOc1c(Br)cc(/C=N/NC(N)=O)cc1OC,i,6,-5,-18,-55,-13,-1,-1,
O=c1[nH]c2cc3c(cc2cc1CN(Cc1ccco1)C(=S)NCC1CCCO1)OCCO3 (stereo unspecified),i,-8,1,-21,-17,34,-7,-5,
O=C(CSc1nnc(CN2CCCCC2)n1-c1ccccc1)c1ccc2c(c1)OCO2,i,-13,2,-13,x,58,-5,-5,
COc1ccc(C2Nc3ccccc3C(=O)N2c2ccccc2)cc1Cn1cc([N+](=O)[O-])cn1 (stereo unspecified),i,-3,2,-13,39,-3,0,3,
C/C(=C\c1ccccc1)CN1CCN(c2ccccc2)CC1,i,10,-4,x,-39,-1,-5,-1,
CN1CCN(c2cc(N3CCc4ccccc4C3)c(F)cc2[N+](=O)[O-])CC1,i,11,47,x,6,u,3,2,
C#CCNC(=O)C1=C[C@@H](c2coc3ccccc3c2=O)C[C@@H](OCc2ccc(CO)cc2)O1,i,26,0,-10,-10,-4,6,6,
Cc1nc(/C=[N+](\[O-])C(C)(C)/C=N/O)n(O)c1C,i,-9,-7,-14,x,-10,1,8,
Cc1ccc(S(=O)(=O)Nc2cccc(-c3ccc(N4CCCCCC4)nn3)c2)c(C)c1,i,-9,-11,-14,-35,-11,5,-3,
CCOC(=O)CNC(=O)c1ccccc1,i,5,4,103*,x,-2,4,1,
Cc1ccc(S(=O)(=O)CCc2nc3ccccc3n2CCC#N)cc1,i,1,-4,-13,x,-5,2,-1,
O=C(CC1SC(=Nc2ccccc2)N(CCc2c[nH]c3ccccc23)C1=O)Nc1ccccc1F (stereo unspecified),i,-8,-2,x,x,81*,-16,-8,
O=C(NCCc1ccccn1)C1CC(=O)N(Cc2ccccc2Cl)C1 (stereo unspecified),i,-4,-2,-12,-38,1,0,3,
Fc1ccc(-n2c(Cc3ccccc3)nnc2SCc2nc(-c3ccc(Cl)cc3)no2)cc1,x,-6,10,x,80*,10,5,-13,
Cc1ccc(NS(=O)(=O)c2ccc(NC(=O)C3CC3)cc2)c(C)c1,i,-3,-4,-6,-4,3,-7,-12,
CC1CCCN(C(=O)CSc2nnc(-c3ccc(S(=O)(=O)N4CCOCC4)cc3)n2C)C1 (stereo unspecified),i,2,-8,-14,x,-13,3,4,
Cc1cc(C)c2nc(N3CCCC(C(=O)N4CCN(c5ncccn5)CC4)C3)sc2c1 (stereo unspecified),i,-4,0,x,-35,75*,-6,-6,

# In the list so far, 4 have a cyano group.
SMILES,Rce1 inh,eIF4H FP inh,PABP polyA inh,UUG fidelity,Env fusion inh,CSC inhib,MT1-MMP act inh,MT1-MMP act inh RFP,others
CCSc1nc(-c2ccco2)ccc1C#N,i,15,8,-16,-47,-2,-8,6,
COc1ccc(C(C#N)=Cc2cccc(OC)c2OC)cc1,x,x,x,-16,-13,x,2,-8,
CCn1c(CNc2ccc(Cl)cc2)nnc1SCC#N,i,-1,10,x,21,-6,1,2,
Cc1ccc(S(=O)(=O)CCc2nc3ccccc3n2CCC#N)cc1,i,1,-4,-13,x,-5,2,-1,
